From PubChem
TRPML1 agonist = qHTS for Agonists of the Human Mucolipin Transient Receptor Potential 1 (TRPML1); Mucolipin-1 (Homo sapiens), Q9GZU1; TRPML1-expressing cells, Ca2+ dye fluorescence, FDSS; host cell line not named in the record; reference of the full effect not given here; activation, % (no concentration beside the values); 410,000 tested, 0.12% active; in the data active = activation above about 50%; inconclusive = about 30% to 50%; inactive = below about 30%; also: 0% is about no effect; the text of the record puts the active cut at 80%
Target sequence (Q9GZU1 whole entry, looked up): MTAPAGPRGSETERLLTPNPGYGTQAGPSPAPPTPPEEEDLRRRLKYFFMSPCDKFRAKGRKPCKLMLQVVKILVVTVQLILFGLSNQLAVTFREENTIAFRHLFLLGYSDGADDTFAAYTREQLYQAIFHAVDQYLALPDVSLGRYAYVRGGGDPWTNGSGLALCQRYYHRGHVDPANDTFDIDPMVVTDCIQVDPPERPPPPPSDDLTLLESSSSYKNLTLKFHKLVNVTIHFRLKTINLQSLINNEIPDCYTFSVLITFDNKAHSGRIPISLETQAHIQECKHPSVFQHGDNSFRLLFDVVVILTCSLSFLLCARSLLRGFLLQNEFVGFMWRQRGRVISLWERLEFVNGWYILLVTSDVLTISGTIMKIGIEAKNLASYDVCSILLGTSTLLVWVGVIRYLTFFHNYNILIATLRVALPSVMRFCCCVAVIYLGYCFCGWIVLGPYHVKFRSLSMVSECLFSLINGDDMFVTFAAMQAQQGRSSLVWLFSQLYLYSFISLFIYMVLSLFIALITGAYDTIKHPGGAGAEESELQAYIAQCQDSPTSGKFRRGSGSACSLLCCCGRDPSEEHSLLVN
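Tet-induced TRPML1-DL cells, 1,500 per well, cultured overnight, were loaded with a no-wash Ca2+ dye for 45–90 min. Calcium fluorescence was recorded on the FDSS for 110 s after compound addition, before the EC80 agonist (4 uM 54-4) was added.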
ClpP mod = qHTS Assay for Activators of ClpP; ATP-dependent Clp protease proteolytic subunit (Bacillus subtilis (strain 168)), P80244; purified B. subtilis ClpP, FRET peptide cleavage, 20 min; Potency, µM (series often up to 57.5 µM), for inactives: top-dose activity change, negative = active; 340,000 tested, 1.9% active; AID 651965, 2013; active = well fitted falling curve with a large enough effect; inconclusive = small, poorly fitted or top-dose-only effect; inactive = no such curve, though single readings can be large or run the other way; also: potency is read from the fitted curve at half-maximal effect; the source files actives as falling curves though it sought activators and does not explain the sign; nearly all actives have a fitted effect of over 65% in size; many hits overshoot -100%
Target sequence (P80244 whole entry, looked up): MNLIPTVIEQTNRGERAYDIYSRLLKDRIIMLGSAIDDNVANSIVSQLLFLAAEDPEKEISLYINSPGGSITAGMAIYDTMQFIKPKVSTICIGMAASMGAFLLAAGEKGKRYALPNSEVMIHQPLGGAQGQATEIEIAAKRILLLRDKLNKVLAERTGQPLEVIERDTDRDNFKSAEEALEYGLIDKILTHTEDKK
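ClpP 10 microg/mL final, pH 8 Tris/KCl buffer with BSA, glycerol, Tween-20; compound pinned in; FRET-FV substrate; RT 20 min; Ex320/Em430; ΔFRET vs ADEP 5.8 microM, DMSO, no enzyme.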
gsp antagonist = qHTS for Antagonists of gsp, the Etiologic Mutation Responsible for Fibrous Dysplasia/McCune-Albright Syndrome: qHTS; gsp-mutant cells, cAMP HTRF, 30 min; control for the full effect not named in the record; Potency, µM (titrated, usually from 76.9 µM), for the others: at the highest dose activity change, negative = inhibition, actives largely listed as inhibitors; 340,000 tested, 0.4% active; active = falling curve of any shape with a large fitted effect; inconclusive = falling curve, mostly with a smaller effect; inactive = flat or rising curve; cell line not stated here;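 also: intracellular cAMP measured with PDE inhibitor Ro 20-1724 present during compound exposure; potency is read from the fitted curve at half-maximal effect; % is scaled to controls: 0 for no effect and ±100 for the full control effect; nearly all actives have a fitted effect of over 65% in size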
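Cells, 2000/well, grown 16–24 h in DMEM 10% FBS with 0.5 mg/ml G418, then compounds plus […] (300 uM addition stock), 30 min at 37C. cAMP read by HTRF (cAMP-d2 and anti-cAMP antibody-K in lysis buffer) after 30 min RT.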
Menin-MLL FL inh = qHTS Assay for Inhibitors Targeting the Menin-MLL Interaction in MLL Related Leukemias: Competition With Fluorescein Labeled MLL-derived Peptide | Fluorescence polarization, fluorescein-MLL peptide displacement from menin | FP activity change, % at 61.4 µM | 290,000 tested, under 10 active | AID 1766, 2009; inconclusive = falling polarisation curve, or a change in total fluorescence; inactive = total fluorescence flat and polarisation flat or rising; no compound was filed as active; the % refers to the polarisation; negative = inhibition;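 also: % of control where 0% means no effect; inhibitors lower the polarisation; unlabelled MLL peptide was the positive control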
TRPML1 inh = qHTS for Inhibitors of the Human Mucolipin Transient Receptor Potential 1 (TRPML1). Mucolipin-1 (Homo sapiens), Q9GZU1. TRPML1-inducible cells, Ca2+ dye fluorescence, FDSS; hits give low values; inhibition of EC80 agonist-evoked calcium signal. activity change, negative = inhibition, % (no concentration beside the values). 390,000 tested, 0.02% active; in the data active means activity change below about -50%; inconclusive means about -30% to -50%; inactive means above about -30%;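 also: stimulus is agonist 54-4 at its EC80 concentration; % is scaled to controls: 0 for no effect and ±100 for the full control effect; compound concentration not given in the record; the text of the record puts the active cut at -80%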
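TRPML1-DL cells, Tet-induced overnight (~16 h, 37 °C) at 1,500 cells/well, were loaded with Ca8 no-wash dye plus quencher for 45-90 min at room temperature. Compounds were pinned during FDSS kinetic reading; agonist 54-4 at EC80 (4 uM final) then added.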
gsp agonist = qHTS for Agonist of gsp, the Etiologic Mutation Responsible for Fibrous Dysplasia/McCune-Albright Syndrome: qHTS. Potency, µM (doses to about 76.9 µM), for the others: top-dose activation (cAMP increase), most hits filed as activators. 340,000 tested, 0.13% active. gsp mutant cells, cAMP HTRF, 30 min; control for the full effect not named in the record; active = well fitted activation curve with a large enough effect; inconclusive = small, poorly fitted or top-dose-only effect, or another doubt; inactive = no such curve, though single readings can be large or run the other way; cell line not stated here;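 also: phosphodiesterase inhibitor Ro 20-1724 added with compounds to block cAMP breakdown; potency is read from the fitted curve at half-maximal effect; nearly all actives have a fitted effect of over 60% in size; about a fifth of the inactives were tested at one dose only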
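Cells in DMEM/10% FBS with G418 were pretreated with compounds in DMSO plus […] (300 uM stock) for 30 min at 37C. cAMP was measured by HTRF (cAMP-d2 plus anti-cAMP antibody-K) after 30 min at room temperature.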
The depositor's hits bear a star; ? = inconclusive; . = no result given; & = joins results of further samples; [ ] = dose if it differs, or a comment. An excerpt; rates above refer to the full screens.

SMILES	TRPML1 agonist	ClpP mod	gsp antagonist	Menin-MLL FL inh	TRPML1 inh	gsp agonist
Cc1nc2cc([N+](=O)[O-])ccc2c(=O)n1-c1ccc(Br)cc1	.	-0.7%	8%	1.4	.	14%
CCCCCn1c(=O)c(C(=O)NCc2ccccn2)c(O)c2ccccc21	1.3	?	3%[15.4 µM]	-1.0	-1	-1%
COc1cccc(CCNCc2c(F)cccc2F)c1	0.5	.	12%	-1.8	12	19%[15.4 µM]
O=C(O)CNC1c2ccccc2CSc2ccccc21 (configuration not stated)	-0.4	.	-11%	.	-1	10%
O=[N+]([O-])c1ccc(C2C3C(c4ccccc4)=NC4(CCCCC4)N32)cc1 (configuration not stated)	0.2	1.7%	-11%	3.2	2	-21%
CC(=O)O[C@@]12CO[C@@H]1C[C@@H](O)[C@@]1(C)C(=O)[C@H](O)C3=C(C)[C@@H](OC(=O)[C@H](O)[C@@H](NC(=O)c4ccccc4)c4ccccc4)C[C@@](O)([C@@H](OC(=O)c4ccccc4)C12)C3(C)C (some centres not stated)	.	1.5%	3%	0.7	.	.
CCN(CC)C(=O)c1ccc(N(Cc2ccccc2)S(C)(=O)=O)cc1	0.1	0.8%	-5%	-2.4	9	-27%
COc1ccc(CCNC2(C#N)CCCCC2)cc1OC	-0.5	0.8%	.	.	-3	7%
COC(=O)C1=C(c2ccccc2OCc2ccccc2)C[C@@H]2CC[C@H]1N2C(=O)NCc1ccc(N(C)C)cc1	0.5	-0.4%	-20%	.	-4	2%
O=c1[nH]c2ccccc2n1C1CCN(C(c2ccccc2)c2nnnn2Cc2ccccc2)CC1 (configuration not stated)	1.4	1.8%	.	.	10	.
CCOP(=O)(OCC)C(NC(=O)NC)C(N)=O (configuration not stated)	-0.4	0.4%	7%	-1.6	-9	6%
Cc1cccc(OCC(=O)N2CCN(CCc3ccccn3)CC2)c1	-0.9	1.8%	.	.	28	.
N=c1sc2c(n1Cc1ccccc1)CCCC2	-0.5	1.1%	-1%	5.4	2	14%
O=C(c1cccs1)c1cn(Cc2ccccc2Cl)c2ccccc12	0.3	-9.0%	-2%	1.1	36	9%
O=c1c2ccccc2nc(CN2CCOCC2)n1-c1ccccc1F	1.8	-0.6%	2%	2.9	33	-38%[inhibitor]
O=[N+]([O-])c1ccc(Sc2nc3ccccc3o2)c([N+](=O)[O-])c1	-0.5	0.7%	13%	2.0	2	?
CCCCC(=O)N/N=C/c1c(O)n(Cc2ccco2)c(=O)[nH]c1=O	0.5	0.5%	14%	33[activator]	4	?
COc1ccc(NC(=O)C2C3CCC(O3)C2C(=O)O)c(OC)c1 (configuration not stated)	0.4	.	-11%	0.4	-10	-22%
CCC(=NCc1cccnc1)c1c(O)n(-c2ccccc2)c(=O)[nH]c1=O	0.2	-1.7%	-11%	1.1	27	-12%
CCN1CCN(Cc2nc3ccc([N+](=O)[O-])cc3c(=O)n2-c2ccccc2F)CC1	-0.4	-1.4%	-21%	-11	-2	0%
O=C(Cn1cnc2sc3c(c2c1=O)CCCC3)NCCC(=O)N1CCC2(CC1)OCCO2	-0.4	-0.1%	-2%	4.0	0	?
Oc1cc2c(cc1CN1CCN(c3ccccc3)CC1)CCC2	1.4	-2.7%	14%	1.3	-1	25%
O=C1NC(c2cc3ccccc3nc2Cl)Nc2ccccc21 (configuration not stated)	0.1	-3.5%	11%	-0.4	15	9%[15.4 µM]
CC1(c2ccccc2)NCCN2C(=O)CSC21 (configuration not stated)	0.3	0.3%	18%	-3.9	1	-31%[inhibitor]
O=[N+]([O-])c1cc(Cl)c(O)c(-[n+]2c(-c3ccccc3)cc(-c3ccccc3)cc2-c2ccccc2)c1	-0.3	0.8%	13µM*	-7.1	9	?
CC(=O)c1ccc(NC2=NCCCS2)cc1	-0.1	.	-1%	0.4	2	3%[15.4 µM]
O=C(N/N=C/c1c(O)n(CCC2=CCCCC2)c(=S)[nH]c1=O)c1ccccc1	0.2	?	-2%	18	-11	-87%[inhibitor]
C=C1C(=O)OC2CC(C)C3C=CC(=O)C3(C)C(O)C12 (configuration not stated)	0.9	0.9%	-6%	.	-6	-36%
Nc1c(C(=O)OCC2CCCO2)c2nc3ccccc3nc2n1Cc1cccs1 (configuration not stated)	-1.9	19%	9%	-0.9	5	-3%
CCN1CCN(c2nc3ccccc3s2)CC1	0.7	3.4%	6%	-0.8	0	-44%[inhibitor]
CC(C)Nc1nc(Cl)nc(NC(C)C)n1	-0.1	-0.1%	2%	-6.1&0.3	4	-23%
Cc1ccccc1-n1c(/C=C/c2ccc(N(C)C)cc2)nc2ccccc2c1=O	?	1.3%	.	.	-9	.
CC(C)[N+]12CCC(CC1)C(C(O)(c1ccccc1)c1ccccc1)C2 (configuration not stated)	2.9	2.4%	13%	-4.9	1	-30%
Cn1c(O)c(N=Nc2ccc(S(=O)(=O)N3CCOCC3)cc2)c(=O)n(C)c1=O	-0.6	0.2%	11%	-0.3	9	?
CCc1c(C)nc(N)nc1N1N=C1SC(C(C)=O)C(C)=O	-0.8	-1.5%	0%	-0.4	-9	?
O=c1c2ccccc2nc(-c2ccccc2)n1-c1cccnc1	-1.3	-2.1%	-2%	-2.0	-12	8%
CCCCC(=O)N/N=C/c1c(O)n(CCc2ccccc2)c(=O)[nH]c1=O	0.5	.	-7%	4.9	-6	10%[15.4 µM]
Cc1c(OC(=O)N(C)C)ccc2c1O/C(=C\c1ccco1)C2=O	-1.3	.	-6%	?	12	4%[15.4 µM]
CCOC(=O)c1cc(C)n(CCc2cnc[nH]2)c1C	0.2	-2.4%	0%	-4.6	-20	-1%
O=C1CCCN1CC#CCN1CCCC1	0.5&0.0	-2.8%&1.3%	7%	-2.0&3.5&1.7&-13	5	.
O=C1NC(=S)NC(=O)C1C/C=C/c1ccccc1	0.0	0.8%	-4%	7.4	-4	-2%
O=C(Nc1ccccc1)C1=C[C@H](c2ccccc2)C[C@H](OCCCCO)O1	-0.8	0.7%	12%	.	-8	?
COc1cc2c3c(c1OC)Oc1ccc(cc1)C[C@H]1c4c(cc(OC)c(OC)c4Oc4ccc(cc4)C[C@@H]3N(C)CC2)CCN1C	-0.4	-0.9%	11%	.	1	.
CCCCn1c(O)c(/C=C2/C=CC=N2)c(=O)[nH]c1=O	1.0	.	-3%	7.6	-4	-1%[15.4 µM]
NC(=S)c1cn(C2OC(CO)C(O)C2O)c2ncnc(N)c12 (configuration not stated)	0.4	1.2%	-1%	2.2	-9	-27%
CC1(C)C(C(=O)NCc2ccco2)C1(C)C	-0.4	-2.6%	0%	-1.0	40	?
O=C(/C=C/c1ccc2c(c1)OCO2)c1c(O)n(CCc2ccccc2)c(=O)[nH]c1=O	9.4	.	-10%	7.9	0	6%[15.4 µM]
COc1cc(C(C)=O)ccc1OC(=O)N(C)c1ccccc1	-0.3	-2.9%	-8%	0.7	1	2%
O=c1[nH]c2ccccc2n1CCCN1CCC(n2c(=O)[nH]c3cc(Cl)ccc32)CC1	0.0&-0.6	0.4%&2.4%	-21%	1.0	2	.
COc1ccc(CN2CCN(C(=O)COc3ccc4ccccc4c3)CC2)c(OC)c1	0.6	-3.1%	-19%	-2.6	36	6%
O=[N+]([O-])c1ccc(N2CCOCC2)c2c1no[n+]2[O-]	-0.1	-3.0%	.	.	-3	-5%
Cn1c(O)c(C(=O)c2ccccc2Cl)c(=O)n(C)c1=O	0.1	?	6%	1.3	-12	-57%[inhibitor]
CC[C@]12CC[C@H](O)CC1=CCC1C2CC[C@]2(C)C(=O)CCC12 (some centres not stated)	-0.6	.	3%	.	11	?
CCCCN1C(=O)/C(=C\c2ccco2)C(=O)N(CCc2ccccc2)C1=O	1.3	3.6%	-4%	?	-17	-17%
COC(=O)[C@@]1(Cc2ccc(F)cc2)[C@H]2c3cc(C(=O)N(C)C)[nH]c3C[C@H]2CN1C(=O)c1ccccc1	0.4	2.8%	-7%	-0.1&2.9	28	.
CCCCn1c(N)c(C(=O)OCC2CCCO2)c2nc3ccccc3nc21 (configuration not stated)	1.3	?	16%	1.8	2	-10%
CCN(CC)C(=O)c1ccc2c(c1)C1C(Cl)C(Sc3ccccc3[N+](=O)[O-])CC1C(C(=O)O)N2 (configuration not stated)	.	0.1%	-20%	?	.	?
OC(c1ccc(F)cc1)(c1ccc(F)cc1)[C@@H]1CCCN1	-0.3	-2.8%	2%	1.8	1	28%
Nc1c(C(=O)NCc2ccco2)c2nc3ccccc3nc2n1CCN1CCOCC1	-0.1	10µM*	-2%	1.5	-3	6%
CC(C)CCn1c(=O)c(C(=O)NCc2ccc3c(c2)OCO3)c(O)c2ccccc21	-0.2	-0.8%	8%	0.5	27	-3%[15.4 µM]
The results go on.
SMILES	TRPML1 agonist	ClpP mod	gsp antagonist	Menin-MLL FL inh	TRPML1 inh	gsp agonist
CCOCCCNC(=O)CN1C2CCC1CC(O)(c1ccc(OC)cc1)C2 (configuration not stated)	-0.3	0.1%	3%	-0.3	5	15%
CCOP(=O)(/C=C(\Cl)c1ccccc1)C(O)c1ccc(F)cc1 (configuration not stated)	1.1	2.5%	-1%	3.1	-7	5%
CCN(C(=O)COC(=O)c1cn(C)c2ccccc12)c1ccc(F)cc1	-0.2	0.3%	0%	.	5	-3%
Oc1ccc(/C=N/NP(=S)(c2ccccc2)c2ccccc2)c(O)c1O	0.1	1.2%	-3%	1.2	-8	-17%
CCOP(=S)(OCC)Oc1cc(C)oc(=O)c1	1.2	-0.6%	4%	-1.8	14	14%
C[C@]12CCC3C(CC[C@H]4C[C@@H](O)CC[C@]34C)C1C[C@@H](N)[C@@H]2O (some centres not stated)	-0.1	-1.6%	5%	.	27	-14%[15.4 µM]
CCCCCCCSc1cc(OC)c(CCN(C)C)cc1OC	-0.4	0.5%	36%[activator]	1.0	6	-16%
CCCCCn1c(=O)c(C(=O)Nc2nc3ccccc3[nH]2)c(O)c2ccccc21	0.3	.	9%	5.6	-13	13%[15.4 µM]

Rewritten as a markdown table: part of the list above
| smiles | TRPML1 agonist | ClpP mod | gsp antagonist | Menin-MLL FL inh | TRPML1 inh | gsp agonist |
| --- | --- | --- | --- | --- | --- | --- |
| C[C@]12CCC3C(CC[C@H]4C[C@@H](O)CC[C@]34C)C1C[C@@H](N)[C@@H]2O (some centres not stated) | -0.1 | -1.6% | 5% | . | 27 | -14%[15.4 µM] |
| CCOP(=O)(/C=C(\Cl)c1ccccc1)C(O)c1ccc(F)cc1 (configuration not stated) | 1.1 | 2.5% | -1% | 3.1 | -7 | 5% |
